# MARV entry inh: qHTS for inhibitors of binding or entry into cells for Marburg Virus | Marburg virus pseudotyped entry inhibition, cell reporter; control for the full effect not named in the record; about a third of the inactives were read at about 46 µM | Potency, µM (top dose mostly 37.8 µM), without a hit: at the top dose activity change, negative = inhibition, usual class: inhibitors | actives 1.8% (n = 300,000); active = well fitted inhibition curve with a large enough effect; inconclusive = small, poorly fitted or top-dose-only effect, or effect the other way; inactive = flat fitted curve, though single readings scatter; tested in HEK293 cells; about a fifth of its hits are not listed in these tables; further: on the % scale 0 is the no-effect control and ±100 the full control effect; luciferase read-out
# RE007 growth inh: qHTS Assay for Inhibitors of the HIV-1 protein Vpr. S. pombe RE007 Vpr strain, BacTiter-Glo ATP luminescence, 24 h; control for the full effect not named in the record. Potency, µM (top dose mostly 92.2 µM), for the others: top-dose activity change, negative = less growth. actives 0.21% (n = 360,000). AID 651644, 2012; active = well fitted falling curve with a large enough effect; inconclusive = small, poorly fitted or top-dose-only effect; inactive = no such curve, though single readings can be large or run the other way;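 further: on the % scale 0 is the no-effect control and ±100 the full control effect; nearly all actives have a fitted effect of over 50% in size; the assay follows cell death caused by Vpr and the record does not say whether a fall means rescue or toxicity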
#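 Fission yeast strain RE007, carrying one chromosomally integrated HIV-1 vpr copy, was seeded at OD 0.01 in PMG+AL medium with 23 nL pinned compound. After 24 h at 30 °C and 99% humidity, viability was read by BacTiter-Glo luminescence.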
# Cruzain noTriton: qHTS Assay for Promiscuous and Specific Inhibitors of Cruzain (without detergent); Potency, µM, inactives show max response, negative = inhibition, usual class: inhibitors; actives 2.3% (n = 200,000); purified cruzain, Z-FR-AMC fluorescence, no detergent; Cruzipain (Trypanosoma cruzi), P25779;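 further: plate controls were enzyme without inhibitor for no effect and buffer without enzyme for full effect; nearly all actives have a fitted effect of over 40% in size; top concentration of the series not given in the record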
# Target sequence (P25779 123-467 limits assumed): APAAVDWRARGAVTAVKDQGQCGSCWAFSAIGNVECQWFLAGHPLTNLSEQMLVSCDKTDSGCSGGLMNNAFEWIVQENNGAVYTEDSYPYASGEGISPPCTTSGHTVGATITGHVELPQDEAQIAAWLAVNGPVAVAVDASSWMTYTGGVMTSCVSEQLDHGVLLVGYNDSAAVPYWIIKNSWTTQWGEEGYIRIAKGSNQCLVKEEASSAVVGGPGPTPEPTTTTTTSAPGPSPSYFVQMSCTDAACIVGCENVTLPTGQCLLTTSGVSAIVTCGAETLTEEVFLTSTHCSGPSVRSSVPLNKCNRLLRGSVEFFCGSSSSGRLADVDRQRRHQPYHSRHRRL
#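 Purified cruzain at 1.5 nM, pre-incubated 15 min with compound at room temperature in 100 mM sodium acetate pH 5.5, 5 mM DTT, 0.00005% Triton X-100. Reaction started with 2 uM Z-FR-AMC; AMC fluorescence increase over 60 s gives rate.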
# SARS PLpro yeast: qHTS of Yeast-based Assay for SARS-CoV PLP; S. cerevisiae expressing SARS-CoV PLpro, growth rescue; control for the full effect not named in the record; Potency, µM (highest dose often 32.9 µM), for the others: at the highest dose activity, positive = growth rescue; actives 0.19% (n = 330,000); AID 485353, 2010; active means well fitted rising curve with a large enough effect; inconclusive means small, poorly fitted or top-dose-only effect; inactive means no such curve, though single readings can be large or run the other way; further: 0% is about no effect; nearly all actives have a fitted effect of over 55% in size; growth read by luminescence after 48 h
# StopGo reporter: High Throughput Screening for Foot and Mouth Disease Virus Antivirals; Potency, µM (doses to about 57.9 µM), without a hit: top-dose signal change, negative = less light; AID 1159524, 2015; human cells with a luciferase reporter of 2A StopGo recoding; control for the full effect not named in the record; actives 1.2% (n = 410,000); active = well fitted falling curve with a large enough effect; inconclusive = small, poorly fitted or top-dose-only effect; inactive = no such curve, though single readings can be large or run the other way; tested in HEK293T cells; further: on the % scale 0 is the no-effect control and ±100 the full control effect; nearly all actives have a fitted effect of over 45% in size; luciferase light after 4 h
# Cruzain Triton: qHTS Assay for Promiscuous and Specific Inhibitors of Cruzain (with detergent); actives 0.43% (n = 200,000); purified cruzain, Z-FR-AMC fluorescence, 0.01% Triton; Potency, µM, without a hit: max response, negative = inhibition, hits mostly inhibitors; AID 1478, 2009; Cruzipain (Trypanosoma cruzi), P25779;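 further: plate controls were neutral wells for no effect and buffer without enzyme for full effect; nearly all actives have a fitted effect of over 40% in size; top concentration of the series not given in the record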
#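 Detergent-containing arm of a paired screen for aggregation-based inhibition: 0.01% Triton X-100 present. Cruzain at 1.5 nM cleaved 2 uM Z-FR-AMC at pH 5.5 with 5 mM DTT; AMC fluorescence gain over 60 s measured activity.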
# Lassa entry inh: qHTS for Inhibitors of binding or entry into cells for Lassa Virus | Lassa virus pseudotype entry inhibition, cell reporter; control for the full effect not named in the record | Potency, µM (top dose mostly 37.9 µM), inactives show at the highest dose activity change, negative = inhibition, actives largely listed as inhibitors | actives 1.2% (n = 300,000) | AID 540256, 2011; active means well fitted inhibition curve with a large enough effect; inconclusive means small, poorly fitted or top-dose-only effect, or effect the other way; inactive means flat fitted curve, though single readings scatter; tested in HEK293 cells; further: on the % scale 0 is the no-effect control and ±100 the full control effect; nearly all actives have a fitted effect of over 50% in size; luciferase read-out
# NS1 function inh: qHTS Assay for Inhibitors of Influenza NS1 Protein Function | S. cerevisiae slowed by influenza A NS1, growth recovery by OD600 | Potency, µM (top dose mostly 46.1 µM), without a hit: top-dose activity, positive = more growth | actives 0.4% (n = 270,000) | AID 2326, 2010; active means well fitted rising curve with a large enough effect; inconclusive means small, poorly fitted or top-dose-only effect; inactive means no such curve, though single readings can be large or run the other way; further: nearly all actives have a fitted effect of over 50% in size
#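 In this qHTS, NS1 from influenza A is expressed in budding yeast, where it slows growth. Cells are switched from glucose to 2% galactose medium (pH 6.0, -URA), treated with compound, and growth recovery is read at OD600.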
# Numbers without * were called inactive; ? = inconclusive; . = no result given; & = joins results of further samples; [ ] = remark or other dose. Unless noted, the call rests on the fitted dose curve; in most records, active means well fitted curve in the direction sought with a large enough effect; inconclusive means small, poorly fitted or top-dose-only effect, or another doubt; inactive means no such curve, though single readings can be large; an effect the other way counts as inactive or inconclusive. Potency means the concentration at half of the fitted maximal effect.
SMILES,MARV entry inh,RE007 growth inh,Cruzain noTriton,SARS PLpro yeast,StopGo reporter,Cruzain Triton,Lassa entry inh,NS1 function inh
Fc1ccc(Cn2c(SCc3ccc(F)c(C(F)(F)F)c3)nnc2C(F)(F)F)cc1,?,-17%,1%,-4%,?,-4.2%,?,-15%
O=C(NC(=S)NCC1CCCO1)c1ccc(Br)o1 (stereo unspecified),6%[46.1 µM],-20%,.,0%,38%[activator],.,16%[46.1 µM],2%
Cc1ccc(-c2c[n+](Cc3cccc(Cl)c3)c3n2CCC3)cc1,?,-9%,.,-4%,?,.,?,-5%
C/C(CC(=O)Nc1cccc(C(F)(F)F)c1)=N\NC(=O)C(=O)NCC(C)C,?,-9%,.,-4%,0%,.,?,.
COc1ccc(OCC(=O)OCC(=O)NCc2ccco2)cc1,-7%,-4%,-10%,1%,-5%,0.3%,3%,1%
COc1ccc(CNC(=O)c2cc(-c3ccco3)on2)cc1,1%,11%,-23%,2%,45%[activator],0.1%,-5%,-15%
COc1ccc(CCNC(=O)COC(=O)C2CC2C)cc1 (stereo unspecified),?,3%,.,-2%,-8%,.,-12%,.
Cc1cc(N2CCN(c3nc(-c4ccc([N+](=O)[O-])cc4)cs3)CC2)c2ccccc2n1,11µM*,?,.,-1%,?,.,?,.
CC(OC(=O)C1=COCCO1)C(=O)Nc1ccccc1C#N (stereo unspecified),1%[46.1 µM],-6%,.,-1%,-13%,.,1%,.
Cc1ccc(S(=O)(=O)N2CCOCC2)cc1C(=O)Nc1ccc2c(c1)CCC2,3%,-9%,18%,2%,-6%,-8.2%,0%,-5%
O=C(c1ccccc1F)c1cn(CC(=O)N2CCCC2)c2ccccc12,7%,?,-6%,3%,4%,-0.3%,7%,-7%
Cc1ccn(CCNC(=O)C2CCC(=O)N(Cc3ccc(Cl)cc3)C2)n1 (stereo unspecified),7%,6%,.,-1%,2%,.,?,3%
COCc1c(C(=O)N2CCN(Cc3c(F)cccc3Cl)CC2)oc2ccccc12,-25%,3%,.,-2%,-30%,.,?,-46%
CCCC(C(=O)NCC1CCCO1)N(C(=O)CNS(=O)(=O)c1ccccc1)c1ccc(F)cc1 (stereo unspecified),-5%[46.1 µM],2%,.,-7%,-3%,.,9%,-10%
O=C(OCc1ccccc1)N(CCCCN(CCCNCc1ccccc1)C(=O)OCc1ccccc1)CCCNCc1ccccc1,?,53%,.,.,?,.,?,.
O=C(CN1CCOCC1)Nc1ncc(Br)cc1Br,?,0%,3%,-9%,-13%,2.2%,13%,2%
Cc1cccc(NC(=S)N(CCCN2CCOCC2)Cc2ccccn2)c1,9%,-3%,-7%,-4%,-4%,-2.4%,10%,7%
COc1ccc(C(=O)n2nc(-c3ccc(C)cc3)nc2N)cc1OC,?,-25%,?,3%,-9%,-2.4%,?,2%
CCN(CC)CCN1C(=O)C(=O)/C(=C(/O)c2ccc(S(=O)(=O)N3CCOCC3)cc2)C1c1ccc(C(C)C)cc1 (stereo unspecified),-3%[46.1 µM],-23%,.,3%,-12%,.,19%,-3%
CCOc1ncccc1C(=O)OCC(=O)Nc1cccc(S(=O)(=O)N2CCCCCC2)c1,?,-15%,.,11%,-23%,.,0%,.
CCOC(=O)C1CCN(S(=O)(=O)c2ccc3c(c2)CC(C)N3C(=O)C2CC2)CC1 (stereo unspecified),?,7%,.,2%,-24%,.,-27%[46.1 µM],-26%
COc1cccc(CNC(=O)CCNS(=O)(=O)c2ccc3[nH]c(=O)oc3c2)c1,?,5%,.,3%,25%,.,-17%[46.1 µM],12%
C=CCN1C(=O)C2(NNc3ccccc3O2)c2ccccc21 (stereo unspecified),-8%,-22%,5%,-13%,-2%,-6.0%,?,-48%
O=C(CSc1nc(N2CCOCC2)nc(N2CCOCC2)n1)Nc1cccc(C(F)(F)F)c1,7%,-6%,.,-7%,-11%,.,-15%,?
CCOC(=O)C(CC)n1cnc2c(nnn2-c2ccccc2)c1=O (stereo unspecified),.,-13%,.,4%,-1%,.,.,-10%
O=C(C1COc2ccccc2O1)N1CCN(c2ccc([N+](=O)[O-])cc2)CC1 (stereo unspecified),?,-11%,.,-12%,0%,.,7%,.
C=COCCNC(=O)C1CC(=O)N(c2ccc(C)cc2)C1 (stereo unspecified),0%,5%,3%,0%,12%,0.0%,3%,1%
CCC(CC)c1nnc(NC(=O)COc2ccc3c(C)cc(=O)oc3c2)s1,-4%,-3%,-4%,-5%,11%,1.3%,?,7%
CCOc1ccc(NC(=O)Cn2cc(C(=O)c3ccc(C)c(C)c3)c(=O)c3cc(OC)c(OC)cc32)cc1,25%[46.1 µM],.,?,.,21%,-1.9%,10%[46.1 µM],.
C=CCNC(=O)C1CCN(S(=O)(=O)c2ccc3ccccc3c2)CC1,.,-5%,.,-4%,-3%,.,.,-6%
COc1cccc(C2c3c(-c4ccccc4O)n[nH]c3C(=O)N2Cc2ccco2)c1 (stereo unspecified),.,17%,.,-1%,-8%,.,.,-32%
CSCCC(NS(=O)(=O)c1ccc(C)cc1C)C(=O)Nc1cccnc1 (stereo unspecified),-19%,-12%,.,-7%,30%,.,-4%,.
CCc1cccc(CC)c1NC(=O)COC(=O)Cc1ccsc1,4%,13%,0%,22%,-2%,0.7%,4%,-5%
COc1ccccc1CNC(=O)c1ccc(N(C)S(=O)(=O)c2ccc(C)cc2)cc1,1%,-16%,.,1%,-11%,.,8%,0%
c1ccc(Cn2nnnc2CN2CCN(Cc3ccc4c(c3)OCO4)CC2)cc1,-14%,-10%,4%,-2%,?,-0.8%,6%,-3%
CCOC(=O)C1=NN(c2ccccc2)C(=O)/C1=C\c1ccc(N(C)C)cc1,-3%,-15%,18%,-5%,18µM*,-5.4%,-1%,-18%
Cn1c(CC(=O)Nc2ccccc2F)nnc1SCC(=O)NC1CCCCC1,8%[46.1 µM],-13%,.,0%,5%,.,.,2%
c1ccc(SCc2nc(-c3cccnc3)no2)cc1,?,4%,0%,-9%,-9%,1.6%,?,-8%
COc1ccc(Nc2cc(C)nc3nc(C)nn23)cc1Cl,.,2%,-15%,-5%,?,-1.3%,.,?
COc1ccc(Nc2nc(-c3cccs3)nc3ccccc23)c(OC)c1,?,-19%,?,-16%,-15%,-7.3%,?,-10%
COc1ccc(N(C)S(=O)(=O)c2cccc(C(=O)NCc3ccc(C)cc3)c2)cc1,3%,8%,.,-11%,0%,.,?,.
CC1CCN(c2ccc(C(=O)Nc3ccc4c(c3)OCO4)cc2[N+](=O)[O-])CC1,?,64%,-1%,-22%,-29%,-4.8%,-28%,6%
O=C(O)C1Cc2[nH]cnc2C(c2cccc([N+](=O)[O-])c2)N1 (stereo unspecified),.,-16%,.,2%,2%,.,.,4%
COc1ccc(-n2cnnc2SCC(=O)NC2CCCc3ccccc32)cc1 (stereo unspecified),?,6%,7%,-11%,-20%,1.5%,?,-15%
COc1ccc(NC(=O)C(C)n2nnc3sc(-c4ccccc4)cc3c2=O)cc1Cl (stereo unspecified),-1%[46.1 µM],.,25µM*,.,-9%,-12%,25%[46.1 µM],.
CCCCN(C)C(=O)C1CCN(Cc2ccc(OCc3ccccc3)cc2)CC1,?,32%,4%,-7%,-18%,0.4%,?,-26%
C=CCNC(=O)COC(=O)c1c2c(nc3ccccc13)CCC2,1%[46.1 µM],3%,.,-3%,-16%,.,1%,12%
Cc1cnc(NC(=O)c2sc3ccccc3c2Cl)s1,?,-6%,-1%,7%,-54%,-4.1%,?,-23%
O=C(Nc1cccc(-c2ccc(N3CCCCC3)nn2)c1)c1ccc(Br)o1,?,11%,.,-13%,-47%,.,?,.
O=C(CCCC(=O)OCC1CCCO1)OCC1CCCO1 (stereo unspecified),-12%,4%,3%,-1%,6%,-4.1%,3%,-1%

# Other compounds.
SMILES,MARV entry inh,RE007 growth inh,Cruzain noTriton,SARS PLpro yeast,StopGo reporter,Cruzain Triton,Lassa entry inh,NS1 function inh
O=C(N/N=C/c1c[nH]c2ccccc12)C1CC1c1ccccc1 (stereo unspecified),?,1%,-7%,14%,?,-14%,2.8µM*,-14%
O=C(C1CCC1)N1CCc2cc(S(=O)(=O)Nc3ccc4c(c3)OCO4)ccc21,?,7%,?,12%,-15%,-6.0%,-25%,-2%
Cc1cccc(CSc2cn(CC(=O)N3CCOCC3)c3ccccc23)c1,?,10%,?,-42%,42%&34%[activator],-9.6%&-12%,1%[46.1 µM],-5%
Cc1ccnc2nc(C(=O)N3CCN(S(=O)(=O)c4ccccc4)CC3)nn12,17%,9%,1%,-2%,7%,3.6%,19%,-6%
C=CCNC(=O)c1ccccc1NC(=O)c1ccc(Cl)c(S(=O)(=O)Nc2ccccc2)c1,?,16%,-28%,5%,6%,-4.9%,?,11%
CCOc1ccc2[nH]cc(-c3csc(N)n3)c2c1,.,3%,.,1%,-9%,.,.,8%
O=[N+]([O-])c1cccc(SSc2cccc([N+](=O)[O-])c2)c1,?,?,.,.,-10%,.,4%[46.1 µM],.
COc1ccc(OC)c(CCNC(=O)CS(=O)(=O)Cc2nc(-c3cccc(Cl)c3)oc2C)c1,-15%[46.1 µM],.,?,.,?,-9.1%,0%[46.1 µM],.

# Screening data deposited in PubChem BioAssay by National Center for Advancing Translational Sciences (NCATS).
